Assay outcomes: PubChem, PCMD
Calb biofilm kill: mixture kills Candida albicans biofilm cells; inhibition, % at 7.6 µM; C. albicans biofilm persisters + clotrimazole, fluorescence viability; primary screen in compound mixtures of four per well; AID 1242; hit rate 0.02% among 120,000;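 active = inhibition above 30.3% in the primary screen of four-compound pools, then above 30% when the compound was retested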;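 note: compounds exposed to preformed 24 h biofilms for 48 h; the number belongs to the whole pool; some results filed as inactive read as strong as hits; inactives centre near 12; 0% = biofilm with clotrimazole alone and 100% = kill control; retested singly at about 60 µM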
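Incubation: 24 h biofilm formation, then 48 h compound exposure, 37 °C | Material: C. albicans biofilms | Buffer or medium: RPMI/MOPS medium, pH 7.0 | Measured by: 2-h Alamar Blue fluorescence, 535/590 nm excitation/emission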
An asterisk follows results filed as active.

| smiles | Calb biofilm kill |
| --- | --- |
| Cc1ccc(NC(=O)C2OCCc3ccccc32)cc1C (stereo unspecified) | -5 |
| COc1ccc(/C=c2\sc3nc(=O)c(C)nn3c2=O)c(OC)c1 | 11 |
| O=C(O)c1cn[nH]c1-c1cccc([N+](=O)[O-])c1 | 7 |
| O=C(Nc1ccc(-c2nc3ccccc3[nH]2)cc1)c1ccc(N2C(=O)CCC2=O)cc1 | 8 |
| Clc1ccc(SCCCCN2CCNCC2)cc1 | 20 |
| Cc1cccc(N2CCN(c3ccc(N4C(=O)CCCC4=O)cc3[N+](=O)[O-])CC2C)c1 (stereo unspecified) | 11 |
| COc1ccc(CNc2nc3ccccc3n2CCN2CCOCC2)cc1 | 8 |
| CC(=O)NC1=NN(C(C)=O)C(C)(c2ccc(Br)cc2)S1 (stereo unspecified) | 14 |
| CN(Cc1ccccc1)C(=O)CCSc1nc(-c2ccc3c(c2)OCO3)cc(C(F)(F)F)n1 | 12 |
| O=C(Nc1cccc(CCc2ccccn2)c1)c1cc(F)c(F)cc1Cl | 21 |
| Cc1ccc(NC2c3ncccc3C(=O)N2Cc2cccs2)cc1C (stereo unspecified) | 8 |
| CCOC(=O)CNc1cccc(C(F)(F)F)c1 | 15 |

| smiles | Calb biofilm kill |
| --- | --- |
| O=C/C(=C\Nc1ccccn1)c1nc2ccccc2o1 | -2 |
| Cc1nc(/N=C(\N)NC(=O)N2c3ccccc3Sc3ccccc32)nc2ccccc12 | 14 |
| COc1ccc(-n2nnnc2SCC(=O)N2CCCc3ccccc32)cc1OC | 17 |
| Cc1ccc(S(=O)(=O)N2c3ccccc3CC2C)cc1 (stereo unspecified) | 18 |
| O=C(CSc1nnc(CCc2nc3ccccc3[nH]2)n1-c1ccccc1)NCc1ccccc1 | 7 |
| O=C(CN(c1ccccn1)S(=O)(=O)c1ccccc1)Nc1ccccc1 | 13 |
| Cc1cccc(C)c1N1CCN(S(=O)(=O)N(C)C)CC1 | 10 |
| O=C(O)c1ccccc1O | 12 |
| COc1ccccc1NC(=O)CN1CCN(c2ccccn2)CC1 | 11 |
| COc1ccc(-c2csc3nc(-c4ccccc4)oc(=O)c23)cc1OC | 5 |
| Cc1ccc(NS(=O)(=O)c2ccc(CCC(=O)NCc3ccccn3)cc2)cc1 | 7 |
| COc1ccccc1C(c1nnnn1CC1CCCO1)N1CCC(C(N)=O)CC1 (stereo unspecified) | 7 |

| smiles | Calb biofilm kill |
| --- | --- |
| CCc1nnc(NC(=O)CN2C(=O)/C(=C/c3ccc(OC)c(OC)c3)SC2=S)s1 | -5 |
| O=C(NCCCN1CCOCC1)c1ccc(Sc2ccccc2Cl)c([N+](=O)[O-])c1 | 16 |
| COc1ccc(/C=C(\C#N)C(=O)NCc2cccs2)cc1OC | 1 |
| Cc1cc(C)cc(Nc2nc3c(S(=O)(=O)c4ccccc4)nnn3c3ccccc23)c1 | 12 |
| CC(=O)Nc1ccc(S(=O)(=O)Nc2ccccn2)cc1 | 14 |
| Cc1ccc(C(=O)Nc2nn(C)c3cccc(F)c23)cc1 | 10 |
| CCOc1cccc(-c2csc(C3COc4ccccc4O3)n2)c1 (stereo unspecified) | 3 |
| Cc1c(C(=O)N/N=C/c2ccc(N3CCOCC3)cc2)nc2ccccn12 | -9 |
| Cc1ccc(NNC(=O)CCc2ccccc2)c(C)c1 | 13 |
| O=C(CCC1CCCN(C(=O)CC2=CCCCC2)C1)N1CCN(c2ccccn2)CC1 (stereo unspecified) | 24 |
| CC(C)(C)[C@H]1C=C(C(=O)NCc2ccccc2)O[C@@H](OCc2ccc(CO)cc2)C1 | 10 |
| CC(C)(C)OC(=O)N1CCC(CNC(=O)c2cccs2)CC1 | 12 |

| smiles | Calb biofilm kill |
| --- | --- |
| O=C(CSCc1c(Cl)cccc1Cl)Nc1ccccc1-c1ccccc1 | 11 |
| C#CC[N+]1(CC#Cc2ccc(C#CC[N+]3(CC#C)CCOCC3)cc2)CCOCC1 | 5 |
| COc1ccc(/C=C2\SC(=O)N(CCNC(=O)Cc3coc4cc(OC)ccc34)C2=O)cc1 | 14 |
| Nc1cc(S(=O)(=O)O)cc([N+](=O)[O-])c1O | 12 |
| O=C(C[n+]1cccc(/C=N/O)c1)N1CCCc2ccccc21 | 22 |
| O=C(CN=C1NS(=O)(=O)c2ccccc21)OCC(=O)c1ccccc1 | 4 |
| Cc1ccc(-c2nc(CSc3nc4ccccc4c(=O)n3CCO)cs2)cc1 | 11 |
| COC(=O)c1ccccc1NC(=O)Nc1cccc(C)n1 | 14 |
| Cc1cc(C(=O)CN2C(=O)CN(C)C2=O)c(C)n1-c1cccc(S(=O)(=O)N2CCOCC2)c1 | 0 |
| CCCc1sc(N/N=C/c2ccccn2)nc1-c1ccc(F)cc1 | 14 |
| Cc1cccc(OCC(=O)NCC2CCCO2)c1C (stereo unspecified) | 26 |
| O=C(CCl)Nc1ccc(N2CCCCCC2)cc1 | 9 |

A different layout for part of the listing above:
O=C(CN=C1NS(=O)(=O)c2ccccc21)OCC(=O)c1ccccc1
  Calb biofilm kill = 4
Cc1ccc(-c2nc(CSc3nc4ccccc4c(=O)n3CCO)cs2)cc1
  Calb biofilm kill = 11
COC(=O)c1ccccc1NC(=O)Nc1cccc(C)n1
  Calb biofilm kill = 14

Later entries
| smiles | Calb biofilm kill |
| --- | --- |
| O=C(COc1cccnc1[N+](=O)[O-])Nc1ccc(Cl)c(S(=O)(=O)N2CCOCC2)c1 | 17 |
| CC1(C)Cc2cccc(OCC(=O)Nc3ccc(OCC(N)=O)cc3)c2O1 | 16 |
| COc1ccc(NS(=O)(=O)c2cc(N/C(=N\S(=O)(=O)c3ccccc3)c3ccc(F)cc3)ccc2Cl)cc1 | 6 |
| COc1ccc(/C=C2\SC(=O)N=C2N)cc1OC | 11 |
| O=C(O)CCCC(=O)N1CCC(C(O)(c2ccccc2)c2ccccc2)CC1 | 23 |
| O=C(OCCN1C(=O)c2cccc3c(N4CCOCC4)ccc(c23)C1=O)c1cc(Cl)cc(Cl)c1 | 15 |
| CCCc1nc(NCc2ccccc2)c(C#N)c2c1CCCC2 | 10 |
| COc1ccc(Nc2oc(-c3ccc(OC)cc3)nc2C#N)cc1 | 13 |
| COc1ccc(C(=O)COC(=O)CNC(=O)c2ccc(OC)cc2)cc1 | 8 |
| Cc1ccc(NS(=O)(=O)c2cccc(C(=O)NN3CCOCC3)c2)cc1 | 13 |
| CN(C)S(=O)(=O)c1ccc(N=Cc2c(C(F)(F)F)[nH]n(C)c2=O)cc1 | 18 |
| COc1ccc(NC(=S)NCC(O)c2ccccc2)c(OC)c1 (stereo unspecified) | -2 |

| smiles | Calb biofilm kill |
| --- | --- |
| CCC(C)N(C(=O)COC(=O)CNC(=O)c1ccccc1F)C1CCS(=O)(=O)C1 (stereo unspecified) | 12 |
| COC(=O)CN1C(=O)N/C(=C/c2cc(OC)c(OC)cc2C)C1=O | 12 |
| O=[N+]([O-])c1cc(-c2ccn[nH]2)ccc1Cl | 13 |
| C/C(CC(=O)Nc1ccc(C)c(Cl)c1)=N\NC(=O)Cc1cccs1 | 16 |
| O=C(C/C=N\OCc1ccc([N+](=O)[O-])cc1)Nc1ccccc1 | 9 |
| Cc1nn(Cc2ccc(Cl)cc2)c(C)c1NC(=O)C(c1ccccc1)c1ccccc1 | -10 |
| CCOc1ccc(-n2c(Cc3cc(=O)[nH]c(=O)[nH]3)nnc2SCC(=O)Nc2nnc(C)s2)cc1 | 20 |
| Cc1ccc(S(=O)(=O)N2CCCCC2)cc1NC(=O)CSc1nnc(N)s1 | 0 |
| CCOc1ccc(-c2ccc(SCC(=O)NCC3CCCO3)nn2)cc1 (stereo unspecified) | 9 |
| O=[N+]([O-])c1ccc2c(c1)[nH]c(=S)n2-c1ccccc1 | 10 |
| CC(=O)c1cccc(NS(=O)(=O)c2ccc(N/C=C/C(=O)c3ccc(F)cc3)cc2)c1 | -1 |
| O=C(Nc1ccccc1NC(=O)C1CCCO1)c1ccco1 (stereo unspecified) | 8 |

| smiles | Calb biofilm kill |
| --- | --- |
| CN(C)S(=O)(=O)Oc1ccccc1C(=O)Nc1ccc(F)cc1F | 15 |
| C=CCOCCN1C(=O)C2C3C=CC(C2C1=O)C1C2C(=O)N(CCOCC=C)C(=O)C2C31 (stereo unspecified) | 14 |
| COc1cccc(C(=O)/C=C/Nc2ccc(S(=O)(=O)Nc3ncccn3)cc2)c1 | 14 |
| CC(NC(=O)C1CC12CCC2)c1ccccc1 (stereo unspecified) | 15 |
| COC(=O)c1cc(N=Nc2c(C)[nH]c3ccccc23)cc(C(=O)OC)c1 | 18 |
| COc1ccc2oc(-c3cccc(NC(=O)CSc4ccc(Cl)cc4)c3)nc2c1 | 17 |
| C[C@@H](C(=O)N1CCNCC1)n1cc(CCCN=C(N)N)nn1 | 24 |
| O=[N+]([O-])c1ccc(O)c(/C=N/Nc2ccccn2)c1 | 41 |
| CCOC(=O)Cc1c(C)nc2c(-c3ccc(Cl)cc3)c(C)nn2c1C | 28 |
| CN(C)S(=O)(=O)c1ccc(NC(=O)N2CCOCC2)cc1 | 10 |
| CC1=CCC[C@@H]2[C@@](C)(CC/C(C)=C/C(=O)O)[C@H](C)CC[C@@]12C | 14 |
| COc1ccc(NS(=O)(=O)c2ccc(NC(=S)NC(=O)c3cccc(F)c3)cc2)nn1 | 5 |

| smiles | Calb biofilm kill |
| --- | --- |
| COc1cc(C=O)ccc1OCCCOc1ccccc1[N+](=O)[O-] | -5 |
| O=C(O)CNS(=O)(=O)c1ccc2c(c1)CCCC2 | 14 |
| O=C(CCc1ccccc1)Nc1cccc([N+](=O)[O-])c1 | 15 |
| COc1ccccc1NC(=S)N/N=C/c1cccc(C)c1 | 9 |
| CCOC(=O)c1c(C)[nH]c(C(=O)CSc2nnc(Nc3ccccc3F)s2)c1C | 20 |
| O=C(CSc1nnc(-c2ccccc2)c(-c2ccccc2)n1)Nc1ncc(Cl)cc1Cl | 1 |
| O=C(Cn1cc(Cl)ccc1=O)c1ccc(Cl)cc1 | 16 |
| CNC(=O)CCCCC(=O)N/N=C/c1ccc(Cl)cc1Cl | 15 |
| O=C(N/N=C/c1ccco1)c1cccc(S(=O)(=O)Nc2ccccc2Cl)c1 | 12 |
| C=CCC1S/C(=N/N=C/c2cccs2)NC1=O (stereo unspecified) | 31 |
| O=C(CC(=O)N/N=C\c1ccc(F)cc1)NCCc1ccccc1 | 16 |
| CCc1nnc(NC(=O)CSc2nc3[nH]ncc3c(=O)[nH]2)s1 | 9 |

| smiles | Calb biofilm kill |
| --- | --- |
| Cc1ccc(C(=O)Cn2nnc(-c3cccs3)n2)cc1 | 13 |
| CCN(CC)S(=O)(=O)c1cc(NC(=O)C(C)N2CCc3ccccc32)ccc1C (stereo unspecified) | 7 |
| CCOc1ccccc1-n1nnnc1SC(C)C(=O)OC (stereo unspecified) | 12 |
| O=[N+]([O-])c1nn(-c2ccc3c(c2)OCCO3)n(O)c1=NCCC1=CCCCC1 | 22 |
| CCN(c1ccccc1)S(=O)(=O)c1ccc(C(C(=O)OC)C(=O)OC)c([N+](=O)[O-])c1 | 10 |
| O=C1C(Br)=Cc2cccc3cccc1c23 | 19 |
| CN1CCN(CCCN2c3ccccc3Sc3ccc(Cl)cc32)CC1 | 13 |
| O=C(c1ccc(-c2ccc([N+](=O)[O-])cc2Cl)o1)N1CCOCC1 | -3 |
| Cc1cc(NC(=O)CSc2ncnc3c2cnn3-c2cccc(Cl)c2)no1 | 13 |
| Cc1cc(C)n2nc(C(=O)N/N=C/c3ccc(Cl)cc3)nc2n1 | 11 |
| Cc1ccccc1NC(=S)c1nc2ccccc2[nH]1 | 9 |
| CO/N=C(/C)CCS(=O)(=O)c1ccccc1 | 10 |

| smiles | Calb biofilm kill |
| --- | --- |
| COC(=O)c1ccc2c(=O)n(-c3ccccc3)c(SCN3C(=O)c4ccccc4C3=O)nc2c1 | 13 |
| COC(=O)Nc1sc2c(c1C(N)=O)CCC(C)C2 (stereo unspecified) | 27 |
| CCCCCCCN1C=CC(=O)CC1 | 16 |
| NC(=O)[C@@H]1CCCN1Cc1nc(Cc2ccccc2F)no1 | 6 |
| C=CC#CC1(O)CC(C)[N+](C)(C)CC1C (stereo unspecified) | 13 |
| CCOC(=O)C1(Cc2ccccc2)CCN(Cc2cccc3nccnc23)CC1 | 21 |
| COc1ccc(NC(=O)c2cc(S(=O)(=O)N(Cc3ccccc3)c3ccccc3)ccc2Cl)cn1 | 14 |
| CN1CCC(N(C)C(=O)Cc2ccccc2[N+](=O)[O-])CC1 | 14 |
| CC(OC(=O)c1oc2ccccc2c1COc1ccccc1)C(N)=O (stereo unspecified) | 11 |
| CC(/C=C/c1cccc([N+](=O)[O-])c1)=N/NC(=O)c1cccnc1 | -8 |
| CCOc1ccc(/C=C2/C(=O)N(c3ccc(OC)cc3)C(=S)N2CC(=O)OC)cc1OCC | 18 |
| COc1ccc(NC(=O)CSc2n[nH]c(N)n2)cc1OC | 11 |

| smiles | Calb biofilm kill |
| --- | --- |
| Cc1ccc(S(=O)(=O)N(C)C)cc1NC(=S)NCCc1ccccn1 | 5 |
| CCCNCC(O)COc1ccccc1C(=O)CCc1ccccc1 (stereo unspecified) | 4 |
| CSCC(C)N1CCC(CO)(CCCc2ccccc2)CC1 (stereo unspecified) | 5 |
| O=C(COc1cc(Cl)ccc1Cl)Nc1ccc2c(c1)CCC2 | 18 |
| O=C(Nc1cccc(F)c1)c1cc(S(=O)(=O)NCCC2=CCCCC2)ccc1F | -4 |
| COc1cccc(N(C(=O)C2CSC(=O)C2)C(C(=O)NC(C)(C)C)c2ccncc2)c1 (stereo unspecified) | 18 |
| COc1cc(C(=O)Nc2ccc3c(c2)Cc2cc(NC(=O)c4cc(OC)c(OC)c(OC)c4)ccc2-3)cc(OC)c1OC | 18 |
| CC(C)CC(=O)NC(=S)NCc1ccccc1 | 15 |
| CCN(CC)S(=O)(=O)c1cc(NC(=O)c2ccc(Br)s2)ccc1C | 21 |
| C[n+]1ccn(CC(=O)c2ccc(Cl)cc2)c1 | 11 |
| COc1cc(OC)cc(-c2n[nH]c(=S)n2-c2ccc3c(c2)OCCO3)c1 | 18 |
| CC1CCN(C(=O)CSc2nc3[nH]ncc3c(=O)[nH]2)CC1 | -4 |

These rows are one share of the data (hit frequency here may not be typical).
